Bioassay records deposited in PubChem by several laboratories.
Calb FLC: C. albicans growth inhibition with fluconazole, primary screen, CaCi-2 strain, Alamar Blue fluorescence. 0.57% of 300,000 active. C. albicans CaCi-2 (fluconazole-resistant clinical isolate) + fluconazole, 48 h. growth inhibition, % (test concentration not listed). AID 1979, 2009;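 active means most replicates above 75%; inconclusive means exactly half above 75%; inactive means most below 75%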;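 further: all wells also contain fluconazole at 8 µg/ml as a sub-toxic cotreatment; 0% = median of DMSO wells and 100% = median of geldanamycin control wells; wells of about 8 µL received 7.5 nL stock; the first replicate is given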
LANA-H2B inh: blockers of LANA interaction with H2A/H2B – biochemical, FP readout, HTS, primary screen; Protein LANA1 (Human herpesvirus 8 type P (isolate GK18)), Q9QR71; cell-free LANA-H2A/H2B peptide, fluorescence polarization; inhibition, % (concentration not given with the values); 0.6% of 320,000 active; in the data active means inhibition mostly above about 10%, no sharp cut-off; inactive means mostly below about 6.7%;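 further: stock transfer was 7.5 nL into about 10 µL; 0% = median of vehicle wells and 100% = median of positive control wells; one replicate is shown; the record names a cut of 25% in any replicate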
ALR inh: inhibitors of human ALR sulfhydryl oxidase, primary screen, biochemical, H2O2 detection, HRP-luminol luminescence, single point; FAD-linked sulfhydryl oxidase ALR (Homo sapiens), P55789; purified ALR, DTT oxidation; inhibition, % (concentration not given with the values); 3.8% of 290,000 active; AID 485317, 2010;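 active means mean and each replicate at 75% or more; inconclusive means only one of the two met; inactive means neither met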;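 further: stock transfer was 7.5 nL into about 7.5 µL; 0% = neutral wells and 100% = wells with inactivated enzyme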
Target sequence (P55789 whole entry, looked up): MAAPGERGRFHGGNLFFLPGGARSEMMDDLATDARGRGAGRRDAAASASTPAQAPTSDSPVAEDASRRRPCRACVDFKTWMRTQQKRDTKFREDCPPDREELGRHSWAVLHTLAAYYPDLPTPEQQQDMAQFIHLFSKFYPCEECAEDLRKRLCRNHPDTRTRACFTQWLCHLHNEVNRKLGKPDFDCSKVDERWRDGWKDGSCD
RanGTP-Imp inh: inhibitors of RanGTP-importin-beta interaction, primary screen, biochemical, FRET, CFP-Ran, YFP-importin-beta, homogeneous. Ran GTPase (GTP-bound) - importin-beta complex. 1.1% of 300,000 active. cell-free CFP-Ran/YFP-importin-beta FRET ratio. inhibition, % (test concentration not listed);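 active means most replicates above 15%; inconclusive means exactly half above 15%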;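 further: 0% = DMSO wells and 100% = Ran loaded with GDP instead of GTP; wells of about 40 µL received 100 nL stock; the first replicate is given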
Vif A3G: inhibitors of Vif binding to APOBEC3G peptide, primary screen, biochemical, TR-FRET, GST-Vif 1-94, biotin-A3G peptide, dose response retest (AID 1117319); TR-FRET GST-Vif / biotin-A3G peptide binding; higher % means a stronger effect; test concentration not given here; strong numbers were not always called active; inhibition, %; hits with a dose series show IC50 in µM; 0.57% of 260,000 active;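 active means above the screen mean plus three standard deviations and confirmed in dose response; inconclusive means results disagree or hit not tested in dose response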;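 further: Vif residues 1-94 fused to GST binding biotinylated APOBEC3G peptide 110-148; 0% = full assay without inhibitor and 100% = GST in place of GST-Vif; retest series ran down from 100 µM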
HNF4A DNA FP: change in binding of human HNF4A to DNA, primary screen, biochemical, fluorescence polarization, FITC-DNA; Hepatocyte nuclear factor 4-alpha (Homo sapiens), P41235; 1 h; activity change, % at 10 µM; 0.3% of 360,000 active; in the data active means activity change above about 30%, passing the limit was not always enough;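 further: controls were the assay level and a saturating level of protein; the project sought stronger binding though the title names inhibitors; some compounds called inactive have numbers as strong as hits; positive values seem to mean higher polarization but the record does not say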
Target sequence (P41235 whole entry, looked up): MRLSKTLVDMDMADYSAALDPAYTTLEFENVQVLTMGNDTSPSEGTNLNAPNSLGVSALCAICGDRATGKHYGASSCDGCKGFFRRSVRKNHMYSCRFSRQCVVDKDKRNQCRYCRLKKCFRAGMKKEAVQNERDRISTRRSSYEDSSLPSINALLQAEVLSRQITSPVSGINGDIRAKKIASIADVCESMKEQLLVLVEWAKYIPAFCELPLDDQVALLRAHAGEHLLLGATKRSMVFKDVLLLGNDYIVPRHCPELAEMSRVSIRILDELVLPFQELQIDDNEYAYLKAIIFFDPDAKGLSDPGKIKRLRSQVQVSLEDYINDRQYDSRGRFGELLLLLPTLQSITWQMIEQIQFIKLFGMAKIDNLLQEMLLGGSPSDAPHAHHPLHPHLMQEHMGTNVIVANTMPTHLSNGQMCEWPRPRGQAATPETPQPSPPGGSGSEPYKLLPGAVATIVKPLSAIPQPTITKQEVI
Beta2AR agonist: beta2AR agonists driving receptor internalization, primary screen, cell-based, FAP fluorogen, flow cytometry | Am2.2-beta2AR cells; reference of the scale not given here | response, % (no concentration beside the values) | Beta-2 adrenergic receptor (Homo sapiens), P07550 | 0.43% of 340,000 active | AID 504454, 2011;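 active means response above a set limit, near 3 SD of response in nonfluorescent compounds, cut at about 42% in these data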;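 further: stock transfer was 100 nL into about 11 µL; a reference agonist was the positive control; negative values mostly stem from fluorescent compounds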
Target sequence (P07550 whole entry, looked up): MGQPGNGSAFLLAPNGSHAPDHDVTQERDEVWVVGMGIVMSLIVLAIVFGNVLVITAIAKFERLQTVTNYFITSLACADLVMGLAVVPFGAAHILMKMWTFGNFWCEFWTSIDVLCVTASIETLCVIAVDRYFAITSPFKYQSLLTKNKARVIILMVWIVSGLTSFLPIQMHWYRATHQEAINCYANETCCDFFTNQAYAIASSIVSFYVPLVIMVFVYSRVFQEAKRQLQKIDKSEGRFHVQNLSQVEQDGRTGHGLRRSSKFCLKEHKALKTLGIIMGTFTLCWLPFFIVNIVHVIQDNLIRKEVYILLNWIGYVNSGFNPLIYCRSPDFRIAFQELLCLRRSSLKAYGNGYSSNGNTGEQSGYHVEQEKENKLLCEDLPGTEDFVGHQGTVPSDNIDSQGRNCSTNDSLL
* marks the source's active call; other numbers are inactive results; u = inconclusive; x = not tested or not shown; & = joins results of further samples. Random draw from the library; overall some 6.3% were active at least once.

Screens in order – Calb FLC, LANA-H2B inh, ALR inh, RanGTP-Imp inh, Vif A3G, HNF4A DNA FP, Beta2AR agonist
[1] Cc1ccc(C(=O)NC2CCCc3ccccc32)cc1[N+](=O)[O-] (centres undefined)
  1.5, -4.0, 1.9, 0.5, -8.6%, 0.2, -8.2
[2] COC(=O)[C@@H]1CCCN1C(=O)c1ccc(OC2CCN(Cc3ccccn3)CC2)cc1
  10.9, -2.4, 5.6, 4.8, x, 2.2, 12.7
[3] Cc1c(C(=O)Nc2cccc(F)c2)cnn1-c1ccccc1
  -14.6, -7.2, 1.6, 5.8, x, 2.6, 12.7
[4] Cc1ccc(CSc2nc3ccccc3c(=O)[nH]2)cc1
  1.2, -3.4, -36.0, -2.9, -6.3%, -1.1, -1.1
[5] COc1ccc(CN2C(=O)c3cccc4cccc2c34)cc1F
  -5.2, -2.3, -21.3, 4.0, x, -1.2, -6.3
[6] O=[N+]([O-])C(C1CCS(=O)(=O)C1)C1CCS(=O)(=O)C1 (centres undefined)
  3.7, 1.7, -0.2, -1.8, x, 3.0, 3.2
[7] CCNc1ccc(C(=O)NN=C2CCCC2)cc1[N+](=O)[O-]
  34.6, -5.2, -4.1, 0.9, 4.6%, -5.1, -15.4
[8] CC(C)CC(=O)Nc1ccc2c(c1)nc(CCN1CCOCC1)n2C
  -0.3, -4.0, x, 1.6, -5.1%, 0.2, -2.0
[9] Cc1ccc(OC(=O)c2ccc3nc(C)sc3c2)cc1
  43.2, 0.6, -1.1, 6.1, -150.3%, x, x
[10] COC(=O)N(NC(=O)C(O)(c1ccccc1)c1ccccc1)c1ccccc1
  2.7, 4.0, -10.4, 0.9, x, 1.9, -1.3
[11] COc1cc(/C=N/N2CCN(Cc3ccc(C)cc3)CC2)cc(OC)c1O
  1.2, 2.3, 99.1*, u, x, 3.2, -0.9
[12] O=C(c1ccc(COc2ccccc2Br)o1)N1CCCCCC1
  9.7, 3.4, -11.9, -1.0, 3.2%, 0.2, -11.0
[13] COC(=O)C1CC2(C(=O)OC)CC(C(=O)OC)(CC(C(=O)OC)C2=O)C1=O (centres undefined)
  x, x, x, x, -4.6%, -1.7, -3.4
[14] CN(Cc1ccon1)Cc1cn(C)nc1-c1ccc(Oc2ccccc2)cc1
  -0.4, 6.0, -2.1, 0.3, -3.7%, 2.4, -9.6
[15] O=C(N/N=C/c1cccc([N+](=O)[O-])c1)c1cccs1
  -8.1, x, x, 0.8, x, 3.3, -11.5
[16] O=C(COC(=O)c1ccccc1SCC(=O)N1CCCC1)Nc1ccccc1C(F)(F)F
  -20.2, 1.0, -5.5, 2.9, x, 1.4, 2.7
[17] O=C(c1cnn2c1NC(c1ccc(Br)cc1)CC2C(F)(F)F)N1CCN2CCCC2C1 (centres undefined)
  18.1, 3.7, 0.0, 4.1, 1.1%, 0.0, -4.8
[18] N#CC1=C(N)Oc2cc(N)ccc2C1c1ccc(F)cc1F (centres undefined)
  4.1, -12.9, -19.2, 124.7*, 21.4%, 36.8, -31.1
[19] COc1ccc(Cl)cc1NC(=O)CN(C)C(=O)Cc1ccc2c(c1)CCC2
  4.5, -0.2, -3.3, 1.8, u, 4.5, -8.1
[20] COC(=O)c1ccc2c(c1)N(C)C(=O)CS2
  -18.3, 8.0, -2.3, -3.7, 1.8%, -3.3, 0.2
[21] COc1cccc(NC(=O)c2ccc(NC(C)=O)cc2)c1
  -0.9, -3.9, -7.3, 3.2, 2.2%, 1.7, -3.9
[22] COc1ccc2[nH]c(=O)c(CN(Cc3ccc4c(c3)OCO4)C(C)=O)cc2c1
  -0.1, 2.3, -18.3, 0.2, -1.1%, 4.4, 17.9
[23] CCOc1ccc(N(C)S(=O)(=O)c2cc(-c3cc(C)no3)ccc2C)cc1
  -0.6, -1.4, -1.5, 0.5, x, 5.8, 4.7
[24] COc1cccc(/C=C2\SC(=O)N(CC(=O)NCCCn3ccnc3)C2=O)c1
  1.6, -3.0, 98.9*, 3.1, 3.9%, -3.8, -4.1
[25] Cc1ccc(NC(=O)c2ccc3c(c2)S(=O)(=O)c2ccccc2C3=O)cc1S(=O)(=O)N1CCOCC1
  3.3, -1.6, -3.3, 7.7, -16.0%, -2.1, -2.3
[26] Nc1nc(-c2ccco2)nn1C(=O)c1ccccc1Cl
  -4.3, x, x, -4.1, 2.2%, 2.1, -2.5
[27] C[C@H](CO)N1C[C@H](C)[C@@H](CN(C)C)Oc2c(NC(=O)Cc3ccccc3)cccc2C1=O
  x, x, x, x, -0.9%, 0.0, 4.3
[28] O=C(COC(=O)c1n[nH]c2ccccc12)NCCc1ccc(Cl)cc1
  x, 11.6, 0.8, x, -9.6%, -2.9, 4.3
[29] CCC(CC)C(=O)Nc1c2c(nn1-c1ccc(OC)cc1)CS(=O)C2 (centres undefined)
  1.7, -5.8, -1.5, 6.2, -0.5%, 2.7, -2.9
[30] Cn1c(=O)[nH]c(=O)c2c1nc(SCc1ccccc1Cl)n2CC(N)=O
  -3.2, 1.6, -2.1, 0.7, x, -5.1, 4.3

Sorted by length of the SMILES (ascending): 3 of the compounds above.
Screens in order – Calb FLC, LANA-H2B inh, ALR inh, RanGTP-Imp inh, Vif A3G, HNF4A DNA FP, Beta2AR agonist
[29] CCC(CC)C(=O)Nc1c2c(nn1-c1ccc(OC)cc1)CS(=O)C2 (centres undefined)
  1.7, -5.8, -1.5, 6.2, -0.5%, 2.7, -2.9
[19] COc1ccc(Cl)cc1NC(=O)CN(C)C(=O)Cc1ccc2c(c1)CCC2
  4.5, -0.2, -3.3, 1.8, u, 4.5, -8.1
[27] C[C@H](CO)N1C[C@H](C)[C@@H](CN(C)C)Oc2c(NC(=O)Cc3ccccc3)cccc2C1=O
  x, x, x, x, -0.9%, 0.0, 4.3

Continued:
Screens in order – Calb FLC, LANA-H2B inh, ALR inh, RanGTP-Imp inh, Vif A3G, HNF4A DNA FP, Beta2AR agonist
[31] COc1cccc(NC(=O)CSC2=NN3CCCC(=O)N=C3S2)c1
  -6.2, 0.2, -3.4, 0.8, 8.5%, -2.9, 4.4
[32] CCOC(=O)C1=C(C)NC2=C(C(=O)C(C(=O)OCC)C(c3ccccc3OC)C2)C1c1ccccn1 (centres undefined)
  -20.2, -1.3, -16.3, 18.3*, 0.1%&-1.6%, 1.8, 7.3
[33] COc1ccc(CCNC(=O)/C=C/c2ccco2)cc1
  -16.2, 0.3, 14.8, 3.3, 37µM*, 0.3, 1.1
[34] CCCCN1C(=O)CC(SC2CC(=O)N(CCCC)C2=O)C1=O (centres undefined)
  x, x, x, x, -5.8%, -2.0, -2.8
[35] NC(=O)c1nsc(C(=O)N(c2ccccc2F)C(C(=O)NCc2ccccc2)c2ccc(O)cc2)c1N (centres undefined)
  1.3, 2.2, x, -0.6, x, -0.4, 5.7
[36] O=C(NCCCN1CCCC1)Nc1cccc2ccccc12
  -4.3, 14.4*, -14.8, 1.0, 0.9%, 1.7, -1.2
[37] COC(=O)c1cc2oc(C)cc2n1CC(=O)Nc1ccc(C)c(C)c1
  -22.2, -7.6, 7.4, -4.6, 14.9%, -0.3, 8.6
[38] COc1ccccc1NS(=O)(=O)c1ccc(C)c(C(=O)NC2CCN(Cc3ccccc3)CC2)c1
  x, x, x, x, -8.0%, 1.6, 0.6
[39] Cc1cc2oc(C(=O)Nc3ccc(S(N)(=O)=O)cc3)c(C)c2cc1Cl
  2.6, 0.6, -2.0, u, 11.3%, -3.0, -1.8
[40] CN(C(=O)c1ccccc1C(=O)OCC(=O)c1ccc(F)c(F)c1)C1CCCCC1
  x, x, x, x, -4.5%, 6.3, -3.2
[41] O=C(CSc1nnc(-c2cccc(Br)c2)o1)N1CCOCC1
  9.3, 4.0, -11.1, 0.2, 0.4%, 4.3, -6.1
[42] Cc1ccc(-c2nnc(SCC(=O)Nc3ccc(S(=O)(=O)N4CCCCCC4)cc3)o2)cc1
  -1.6, x, x, 4.2, -6.0%&-8.1%, 1.3, -5.9
[43] CC(=O)Nc1ccccc1OCCOc1ccc(Br)cc1
  -17.7, 0.5, -10.7, -2.0, -6.8%, 4.0, 9.6
[44] O=C(CCNS(=O)(=O)c1ccc(Br)cc1)NCc1ccc(F)cc1
  -5.1, -2.2, -1.0, 3.9, 0.9%, 2.1, -5.2
[45] COc1ccc(OC)c(C(=O)c2nc3c(n2O)CCCCC3)c1
  2.4, 1.5, -55.6, 0.3, 22.1%, 1.4, -2.4
[46] OC(COCc1ccccc1)Cn1cnc2ccccc21 (centres undefined)
  -11.2, -10.6, -5.5, 3.3, -0.1%, -4.8, 5.9
[47] CCc1c(C(=O)Nc2ccc(C)c(C)c2)[nH]c(C)c1C(C)=O
  1.7, -0.4, 8.9, -5.9, -8.2%, 0.8, 17.2
[48] O=C(c1ccco1)N(Cc1cccc([N+](=O)[O-])c1)c1ccc(Br)cc1
  1.4, 4.0, -25.2, 2.8, x, -0.5, 3.7
[49] CCOC(=O)c1sc(=S)n(-c2ccc(F)c(F)c2)c1N
  -8.7, 0.9, -3.2, -5.4, -2.8%, -0.8, -5.6
[50] O=C(O)c1cc(Cl)c(Cl)cc1C(=O)Nc1cccnc1
  2.0, -3.7, -2.4, 4.5, 15.6%, x, x
[51] CCOc1ccc(N(CCCCO)C(=S)NC(=O)c2ccc(C)c(Br)c2)cc1
  1.7, 4.2, 62.5, -1.7, x, 4.4, -0.1
[52] Cc1c(C(=O)OCC(=O)N2CCN(c3ccccc3)CC2)oc2ccccc12
  x, 4.0, 25.6, x, -5.3%, -2.1, -5.8
[53] CCOC(=O)C1(Cc2ccccc2)NC(c2ccccc2F)C2C(=O)N(CC)C(=O)C21 (centres undefined)
  4.1, -0.1, -18.0, 0.3, -2.2%, 2.3, 0.0
[54] CSc1ccc(NC(=O)N2CC=C(n3c(=O)[nH]c4ccccc43)CC2)cc1
  -7.8, 8.3, 9.9, -0.8, 0.4%, 2.1, 5.0
[55] O=C(NCC1CCCO1)c1ccc(CSCc2cccc(F)c2)o1 (centres undefined)
  -2.6, 1.9, 0.1, 2.0, -8.6%, -2.5, -0.5
[56] COc1ccc(S(=O)(=O)Nc2ccc3c(c2)C(=O)N([C@H](C)CO)C[C@H](C)[C@@H](CN(C)C(=O)Nc2ccccc2)O3)cc1
  x, 0.7, -4.8, x, x, -0.7, -10.3
[57] COCCn1c(SCC(=O)N2CCCC2)nnc1-c1ccco1
  8.7, -2.2, -1.3, -2.9, x, -0.1, -4.8
[58] COc1ccc(Nc2ncnc3sccc23)cc1
  -4.6, -5.2, -1.8, u, 7.2%, 9.9, 3.5
[59] Cc1cc(NC(=O)CN(C)S(=O)(=O)c2cnc[nH]2)ccc1Br
  6.2, 4.3, 1.2, u, 0.5%, 1.8, 5.3
[60] O=C(COc1ccccc1)NCC(=O)N/N=C/c1ccc(Cl)cc1
  -2.6, -3.6, 1.0, 1.1, -5.7%, 1.6, -13.0
[61] COc1ccc(C(=O)CC(=O)C(=O)Nc2ccc(C)c(C)c2)cc1
  -11.9, -5.2, 12.8, 0.3, -4.2%, -2.0, 0.1
[62] COc1cccc(-n2c(=S)sc3c(=O)n(-c4ccccc4OC)c(SCC4OCCO4)nc32)c1
  5.7, 1.4, -11.4, 5.0, 1.4%, 5.5, -0.4
